Bead autofluor – compound fluorescence in toxin protease inhibitor counterscreen. hit rate 3.1% among 360,000. AID 624483. compound autofluorescence counterscreen, microsphere flow cytometry; active compounds read high. fluorescence intensity (no concentration beside the values);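 active = at least 3 SD above the mean of all compounds, about 16000 in these data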;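 note: 100 nL of 1 mM stock went into each well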
The depositor's hits bear a star.

SMILES	Bead autofluor
COc1ccc(CN2C(=O)c3ccccc3C2c2nnnn2Cc2ccccc2)cc1 (centres undefined)	5483
C[C@@H]1CNC(=O)c2c(C(=O)N[C@@H](Cc3c[nH]c4ccccc34)C(=O)OC(C)(C)C)ncn21	3794
OC1c2cc(Cl)cc(Cl)c2N=C2CCCN21 (centres undefined)	3804
CC(=O)Nc1ccc(NC(=O)CSc2nc(=O)n(CCCN3CCOCC3)c3c2CCC3)cc1	3011
CC(C)n1nnnc1C1c2ccccc2C(=O)N1CCOc1ccccc1 (centres undefined)	4077
CCCCn1nnnc1C(c1cccc2ccccc12)N1CCN(C/C=C/c2ccccc2)CC1 (centres undefined)	5843
Cc1cnc(CNC(=O)c2ccc3sc([C@H]4C[C@H](O)[C@@H](CO)O4)nc3c2)cn1	3027
COc1ccc(OC)c(NC(=O)C2(C)CCN2C(=O)C2(c3ccc(Cl)cc3)CCC2)c1 (centres undefined)	3545
C[C@@H]1CN([C@@H](C)CO)C(=O)CCCn2nncc2CO[C@H]1CN(C)C(=O)Nc1cccc(Oc2ccccn2)c1	3785
CCCOc1ccc(F)cc1-c1cc(C(=O)Nc2ccc(C)c(NS(C)(=O)=O)c2)[nH]n1	3719
C[C@H](O)[C@@H]1C(=O)N2CCc3c([nH]c4ccccc34)[C@@H]2C[C@@H]1N(C)C(=O)NC1CCCCC1	3877
CCOC(=O)C(=O)N(C)c1c(CC)nc2c(OCCC3CCCCC3)cccn12	3655
O=S(=O)(N=C1C=CC(=NS(=O)(=O)c2ccccc2)c2ccccc21)c1ccccc1	3670
CCC(=O)N1CCC(C)(C(=O)Nc2cc(OC)c(OC)c(OC)c2)C1 (centres undefined)	3055
CCCCNC(=O)C[C@@H]1C[C@@]2(C(=O)OCC)CCC=C2N(Cc2ccc3c(c2)OCO3)C1=O	5237

Reformatted: entries from further up.
| Molecule | Bead autofluor |
| --- | --- |
| O=S(=O)(N=C1C=CC(=NS(=O)(=O)c2ccccc2)c2ccccc21)c1ccccc1 | 3670 |
| CCC(=O)N1CCC(C)(C(=O)Nc2cc(OC)c(OC)c(OC)c2)C1 (centres undefined) | 3055 |
| CCCCNC(=O)C[C@@H]1C[C@@]2(C(=O)OCC)CCC=C2N(Cc2ccc3c(c2)OCO3)C1=O | 5237 |

Next part
SMILES	Bead autofluor
COc1cccc(/C=C/C(=O)OCC(=O)N2c3ccccc3CC2C)c1 (centres undefined)	3691
C[C@H](CO)N1C[C@H](C)[C@H](CN(C)C(=O)c2ccc(N3CCN(C)CC3)cc2)OCc2cnnn2CCCC1=O	3811
COC(=O)c1ccc2nc(-c3cccc(Br)c3)c(Cc3ccc(OC)cc3C)n2c1	5217
O=c1c2ccccc2nc(CBr)n1-c1ccc(Cl)cc1	3848
COc1ccccc1C(=O)NC(=O)COC(=O)c1cnccn1	2871
COc1ccccc1-c1cnc(C(O)c2cc(C)ccc2C)[nH]1 (centres undefined)	2886
COc1ccccc1C#CC1=CC(=O)C[C@H](c2ccc(F)cc2)C1	3523
Nc1ccccc1-c1nc2ccncc2[nH]1	3769
Cc1ccc(Cl)cc1NCN1C(=O)c2ccccc2C1=O	3672
c1ccc2c(c1)oc1c(-c3ccc4nccn4c3)cccc12	3760
COc1cc2c(=O)n(C)c3ccccc3c2cc1OC	4165
Cc1ccc(F)c(S(=O)(=O)NC(=O)C2(C)CCN2C(=O)CC2CCCCC2)c1 (centres undefined)	3157
COc1cccc(C(=O)NCCN2CCC(n3c(=O)[nH]c4ccccc43)CC2)c1	6381
COc1ccc(C2Nc3cccc(O)c3C(=O)N2Cc2ccccc2)cc1COc1ccc(NC(C)=O)cc1 (centres undefined)	2949
CC1(C(=O)Nc2ccc(Cl)c(Cl)c2)CCN1Cc1cc2ccccc2o1 (centres undefined)	4000

Among those listed so far, two have bromine.
SMILES	Bead autofluor
COC(=O)c1ccc2nc(-c3cccc(Br)c3)c(Cc3ccc(OC)cc3C)n2c1	5217
O=c1c2ccccc2nc(CBr)n1-c1ccc(Cl)cc1	3848

(cont.)
SMILES	Bead autofluor
CCc1nc2ccc(C(=O)Nc3cccc(OC)c3)cn2c1N(CC)Cc1cccc(Br)c1	3916
CCOC(=O)C1(C)CCCN(C(=O)c2ccc(C#N)cc2)C1 (centres undefined)	3637
CC(=O)Nc1cccc(-c2csc(C(O)c3ccccc3)n2)c1 (centres undefined)	3370
O=S1(=O)C[C@@H](N2CCC(Cc3ccccc3)CC2)[C@H](COCc2ccccc2)N1	4345
O=C(O)C1CCN(C(=O)c2ccc(S(=O)(=O)N3CCCCCC3)cc2)CC1	3001
Cc1cc(OCC(=O)OCC(=O)N2CCCc3ccccc32)ccc1Cl	3877
CCc1ccc([C@@H]2C[C@H]3[C@@H](CN2S(=O)(=O)c2ccc(C)cc2)C(=O)C[C@@H](c2ccc(Cl)cc2)N3S(=O)(=O)c2ccccc2C)cc1	3037
CC(c1ccon1)N(C)C(=O)c1cccc(OC2CCN(S(C)(=O)=O)CC2)c1 (centres undefined)	3385
Cc1ccccc1C(=O)NC1CC2CCCC(C1)N2CC(C)C (centres undefined)	3684
CC1(C(=O)Nc2cccc(C#N)c2)CCN1C(=O)c1ccccc1CCc1ccccc1 (centres undefined)	3498
CC#CCOCC1CN(C)C(=O)O1 (centres undefined)	3561
CCCCC(=O)N(C)c1c(C)nc2ccc(C(=O)Nc3cccc(NS(C)(=O)=O)c3)cn12	2945
O=C1CCN(CCCN2CCC(=O)NC2=S)C(=S)N1	2847
CCCNC(=O)C1(C)CCN(C(=O)c2ccccc2F)C1 (centres undefined)	4455
Cc1ccc(S(=O)(=O)N(C)CC(=O)N(C)CCOc2ccccc2)cc1	4161

Next part, starting with the last seven of the part before.
SMILES	Bead autofluor
Cc1ccccc1C(=O)NC1CC2CCCC(C1)N2CC(C)C (centres undefined)	3684
CC1(C(=O)Nc2cccc(C#N)c2)CCN1C(=O)c1ccccc1CCc1ccccc1 (centres undefined)	3498
CC#CCOCC1CN(C)C(=O)O1 (centres undefined)	3561
CCCCC(=O)N(C)c1c(C)nc2ccc(C(=O)Nc3cccc(NS(C)(=O)=O)c3)cn12	2945
O=C1CCN(CCCN2CCC(=O)NC2=S)C(=S)N1	2847
CCCNC(=O)C1(C)CCN(C(=O)c2ccccc2F)C1 (centres undefined)	4455
Cc1ccc(S(=O)(=O)N(C)CC(=O)N(C)CCOc2ccccc2)cc1	4161
CCOC(=O)C1=C[C@@H](C(C)(C)C)N(S(=O)(=O)c2ccc(C)cc2)[C@H]1c1ccccc1Cl	5472
CS(=O)(=O)N1CCC(C(=O)Nc2ccc(Cl)cc2Cl)CC1	3793
COC(=O)c1ccc(NS(=O)(=O)c2c(C)nc3sccn3c2=O)cc1	5659
CCCc1nc2c(C)cc(Br)cn2c1Cc1ccccc1C(F)(F)F	8160
C[C@H](CO)N1C[C@H](C)[C@H](CN(C)C(=O)Nc2ccc3c(c2)OCCO3)OCc2cnnn2CCCC1=O	3360
O=C(Nc1ccc2c(c1)OCCO2)C(c1cc2ccccc2o1)N1CCC(Cc2ccccc2)CC1 (centres undefined)	6673
Cc1ccc(-c2nc3ccc(Cl)cn3c2Cc2cccc(Cl)c2)cc1	5735
COc1ccc(CNC(=O)C2Cc3c(-c4cccc(F)c4)ccnc3O2)cc1OC (centres undefined)	3441
CC(=O)Nc1ccc(CNc2nc(NC(C)C)nc3cc(-c4ccccc4)sc23)cc1	3168
CCN1CCN(C(=O)c2cc(COc3ccc(F)c(F)c3)on2)[C@@H](C)C1=O	3857
CC1(C(=O)Nc2ccc(Cl)c(C(F)(F)F)c2)Cc2c(-c3ccc4c(c3)OCO4)ccnc2O1 (centres undefined)	3448
COc1ccc(CNC(=O)c2cn(Cc3ccccc3OC)c(=O)s2)cc1	3990
COc1ccc(-c2nc(NCCN(C)C)nc3ccsc23)c(C)c1	3924
COC(=O)NC1CC2C=CC1C1C=CC21 (centres undefined)	3793
CC1(C(=O)Nc2cnc3ccccc3c2)CCN1Cc1ccc2c(c1)OCCO2 (centres undefined)	4092

Some of the entries so far, with bars between the fields:
Molecule | Bead autofluor
COc1ccc(-c2nc(NCCN(C)C)nc3ccsc23)c(C)c1 | 3924
c1ccc2c(c1)oc1c(-c3ccc4nccn4c3)cccc12 | 3760
C[C@H](CO)N1C[C@H](C)[C@H](CN(C)C(=O)Nc2ccc3c(c2)OCCO3)OCc2cnnn2CCCC1=O | 3360

Next results follow.
SMILES	Bead autofluor
O=C(CCNC(=O)N1CC(=O)Nc2ccccc21)NCCc1ccc(Cl)cc1	3009
CC(C)C[C@@H]1COc2cccc(N3CCN(Cc4ccccc4F)CC3)c2S(=O)(=O)N1	5758
CC1CN(S(=O)(=O)c2cccc(C(=O)Nc3ccc(N4CCCCC4)cc3)c2)CC(C)O1 (centres undefined)	3605
O=C(NCc1ccccc1)c1cc(C2COCCN2C(=O)c2ccc(Cl)cc2)on1 (centres undefined)	3812
COc1ccc(-c2csc(C(C)(O)c3ccccc3)n2)cc1 (centres undefined)	3364
CN(Cc1ccccc1)C(=O)c1ccc(Nc2nc(CN)cs2)nc1	3126
COC(=O)[C@@]1(Cc2ccc(F)cc2)[C@H]2c3cc(C(=O)N4CCCC4)n(Cc4ccccc4)c3C[C@H]2CN1C(=O)c1ccccc1	5770
CC(C)(C)Cc1c(-c2ccccc2)nc2ccc(Br)cn12	2907
Cc1cccc(/C=C/c2ccccc2)n1	6173
COc1cc(C)ccc1S(=O)(=O)NC(=O)C1(C)CCN1C(=O)c1ccc(C(F)(F)F)nc1C (centres undefined)	2864
CC(=O)C1=C(O)C2(C)c3c(O)c(C)c(O)c(C(C)=O)c3OC2CC1=O (centres undefined)	3797
COc1ccc(NC(=O)C[C@H]2C(=O)N(c3ccccc3)C[C@@H]2C)cc1	4147
O=C(NCC1=C(c2ccc3ccccc3c2)C[C@@H]2CC[C@H]1N2Cc1ccco1)c1nccs1	3543
Cc1cc(C)n2nc(C(=O)OCC(=O)NC3CCS(=O)(=O)C3)nc2n1 (centres undefined)	3709
CCCCCCN1C[C@@H](n2cc(COC(=O)c3ccccc3)nn2)[C@H](O)C[C@@H]1c1ccc(C)cc1	2883
CCOc1cc(OCC)cc(C(=O)NCCN2CCC(n3c(=O)[nH]c4ccccc43)CC2)c1	4767
O=C(Nc1cccc(Cl)c1Cl)c1csc([C@@H]2O[C@H](CO)[C@@H](O)[C@H]2O)n1	4062
CCOc1ccc(Cl)cc1-c1cc(C(=O)NCc2cccs2)[nH]n1	3902
COc1ccc(OC)c(CN2C(=O)c3ccccc3C2c2nnnn2C(C)C)c1 (centres undefined)	6447
C[C@@H]1CN([C@@H](C)CO)S(=O)(=O)c2ccc(Br)cc2O[C@H]1CN(C)Cc1ccc(-c2ccccc2)cc1	3885
CC(=O)Nc1ccc(-c2ccnc3c2CC(C)(C(=O)NCc2ccc(N(C)C)cc2)O3)cc1 (centres undefined)	2904
COCCNc1ncnc2c1ncn2[C@H]1CN(Cc2ccc(Cl)cc2)C[C@@H](CO)O1	3110
O=C1CC2CCCC(C1)S2=O (centres undefined)	3456
CC1(C(=O)NCc2ccc(C(F)(F)F)cc2)CCN1Cc1ccccc1OC(F)F (centres undefined)	2960
Cc1ccc(S(=O)(=O)N2C[C@H]3[C@H]4C(=O)N(C5CCCCC5)C(=O)[C@H]4CC(=O)[C@H]3[C@@H]2c2cccc3ccccc23)cc1	5416
O=C1NC[C@H](CCCCN2C[C@H](Cc3ccccc3)N(Cc3ccccc3)C(=O)C2=O)N(CC2CCCCC2)C1=O	5707
Cc1ccc([C@@H]2C[C@H]3[C@@H](CN2S(=O)(=O)c2ccc(C)cc2)C(=O)C[C@@H](c2ccc(C)cc2)N3S(=O)(=O)c2ccc(Cl)cc2)cc1	2906
O=C(Nc1ccc2c(c1)OCO2)c1csc([C@@H]2C[C@H](O)[C@@H](CO)O2)n1	4029
CCCCC[C@H](C)N1C[C@@H](COCc2ccccc2)Oc2cc(N3CCC[C@@H]3COC)ccc2S1(=O)=O	6246
COc1ccc(S(=O)(=O)NC(=O)C2(C)CCN2C(=O)C2(c3ccccc3)CC2)cc1 (centres undefined)	3787
CC(=O)c1ccc(OCc2c(-c3ccccc3)nnn2CC(=O)NS(=O)(=O)c2ccccc2C)cc1	3666
C[C@H]1CN([C@@H](C)CO)C(=O)CCCn2cc(nn2)CO[C@@H]1CN(C)C(=O)Nc1ccc(N2CCCCC2)cc1	2931
CC(C)(C)OC(=O)NCCCCCNC(=O)c1ncn2c1c(=O)[nH]c1ccccc12	3482
OC[C@@H]1CN(CCc2ccccc2)C[C@H](n2cnc3c(NCc4ccc(F)cc4)ncnc32)O1	3508
O=C(Cc1ccccc1)NC1CCCCC1	5640
Cc1c(C(=O)NCc2ccc(Cl)c(Cl)c2)sc(=O)n1Cc1ccc(S(=O)(=O)N(C)C)cc1	4847
CC(C)Oc1cc(F)ccc1-c1cc(C(=O)NCC2CCCCC2)[nH]n1	3943
Nc1nc2ccccc2cc1C(=O)NCc1ccc(Cl)cc1Cl	5826
O=C(O)c1ccc(Cl)c(NC(=O)C2CCN(S(=O)(=O)c3ccc4c(c3)OCCO4)CC2)c1	3730
Cc1noc(C)c1S(=O)(=O)NC(=O)C1(C)CCN1C(=O)Cc1ccc(Cl)cc1Cl (centres undefined)	3749
Cc1cc(C(O)c2ncc(-c3cccc(F)c3)[nH]2)ccc1F (centres undefined)	4099
O=C(NCC1CCCO1)c1[nH]c(C(F)(F)F)nc1-c1ccccc1 (centres undefined)	5976
Cc1ccc(F)cc1C(=O)N1CCOCC1c1cc(C(=O)NCc2ccccc2)no1 (centres undefined)	3044
CN1CCN(C2CN(C3CCCC3)S(=O)(=O)C2)CC1 (centres undefined)	4445
O=C1NCN(c2ccccc2)C12CCN(C(CCc1ccccc1)c1nnnn1-c1ccc3c(c1)OCCO3)CC2 (centres undefined)	5991
CCC(c1nnnn1-c1c(C)cccc1C)N1CCN(c2cccc(C(F)(F)F)n2)CC1 (centres undefined)	4565
O=C(NCCc1ccc(F)cc1)C1CCC(=O)N(CC2CCCCC2)C1 (centres undefined)	3704
C#Cc1ccc(NC(=O)C2(C)CCN2C(=O)c2ccccc2CCc2ccccc2)cc1 (centres undefined)	3070
CC(=O)c1ccc(Nc2nc(C(N)c3ccccc3Cl)cs2)cc1 (centres undefined)	3775
CCc1nc2c(OCC(=O)c3ccc(F)cc3)cccn2c1N(C)C(=O)c1ccc(OC)cc1	3873

A portion of the library (hit frequency here may not be typical).
